# Six1-Eya2 inh = Six1/Eya2 interaction inhibition; 360,000 compounds, 0.56% hits; Q15475+O00167; AlphaScreen GST-Six1/His-Eya2 binding, biochemical; active compounds read low; control for the full effect not named in the record; AID 651725; activity change, % (test concentration not listed); in the data active = activity change below about -65%; inconclusive = about -30% to -65%; inactive = above about -30%; further: on the % scale 0 is the no-effect control and ±100 the full control effect
#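 GST-Six1 + His-Eya2 (5X stock: 250/500 nM); Tris pH 8.0, 300 mM NaCl, 0.05% BSA, 0.02% Tween 20; GSH donor/Ni acceptor beads; 1 h 37 °C dark; AlphaScreen readout.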
# D2 agonist = human D2 receptor agonism in beta-arrestin assay | AID 624465 | P14416 | 360,000 compounds, 0.084% hits | DiscoveRx PathHunter D2 beta-arrestin, luminescence, 90 min; 100% = 57 uM dopamine signal | activation, % (concentration not given with the values); in the data active = activation above about 40%; inconclusive = about 15% to 40%; inactive = below about 15%; further: the text of the record calls up to 30% inactive
# Target sequence (P14416 whole entry, looked up): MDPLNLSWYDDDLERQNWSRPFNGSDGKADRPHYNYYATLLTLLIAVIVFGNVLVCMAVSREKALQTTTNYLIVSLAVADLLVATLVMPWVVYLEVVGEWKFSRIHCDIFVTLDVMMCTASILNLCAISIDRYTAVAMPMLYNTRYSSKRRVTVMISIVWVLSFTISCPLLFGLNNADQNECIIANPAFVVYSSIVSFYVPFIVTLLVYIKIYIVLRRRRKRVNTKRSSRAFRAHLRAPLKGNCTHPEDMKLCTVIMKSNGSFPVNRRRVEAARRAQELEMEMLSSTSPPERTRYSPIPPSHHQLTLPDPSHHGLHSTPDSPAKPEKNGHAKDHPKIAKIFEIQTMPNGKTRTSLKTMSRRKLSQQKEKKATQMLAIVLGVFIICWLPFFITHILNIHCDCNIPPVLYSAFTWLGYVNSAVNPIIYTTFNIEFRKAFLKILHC
#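 Agonist mode: compounds alone added to overnight-plated D2 PathHunter cells for 90 min at 37 C, with 57 uM final dopamine (EC100) defining full response. Beta-arrestin recruitment detected by chemiluminescent reagent, read after 1 h at ambient temperature.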
# Sfp PPTase inh = blocks B. subtilis Sfp PPTase activity. Q9F4F7. Biochemical Sfp PPTase activity, qHTS. Potency, µM, for the others: max response, negative = inhibition, most hits filed as inhibitors. 310,000 compounds, 3.5% hits. AID 1490; active means well fitted inhibition curve with a large enough effect; inconclusive means small, poorly fitted or top-dose-only effect, or another doubt; inactive means no such curve, though single readings can be large or run the other way;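 further: the enzyme is Sfp with the accession as filed and its product quenches rhodamine fluorescence; potency means the concentration at half of the fitted maximal effect; 0% = enzyme reaction without inhibitor and -100% = no enzyme wells; top concentration of the series not given in the record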
#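 Compounds were incubated with enzyme (final 15 nM) for 15 min at room temperature before substrate addition started the reaction. Fluorescence at 525 nm excitation, 598 nm emission was recorded immediately and after 30 minutes.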
# TRPV1 PAM = enhances activation of the human vanilloid receptor TRPV1; Q8NER1; TRPV1-expressing cells, Fluo-8 calcium influx, capsaicin EC20 potentiation; host cell line not named in the record; control for the full effect not named in the record; potentiation, % at 8.33 µM; 320,000 compounds, 0.02% hits; active means potentiation above 80%; inconclusive means 30% to 80%; inactive means below 30%; further: 0% is about no effect
#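 Fluo-8 calcium influx in TRPV1-expressing cells, kinetic read (ex 480/em 520 nm). Compound added and read 3 min for agonist activity, followed by capsaicin at EC20 final and 2 min further read for enhancement.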
# PINK1 modulator = PINK1 expression modulation | 410,000 compounds, 0.2% hits | PINK1 immunofluorescence, high-content cytometry, 24 h | AID 624263 | Potency, µM (titrated, usually from 76.6 µM), without a hit: at the top dose activation (PINK1 increase), most hits filed as activators; active = well fitted activation curve with a large enough effect; inconclusive = small, poorly fitted or top-dose-only effect; inactive = flat fitted curve, though single readings scatter; cell line not stated here;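 further: potency means the concentration at half of the fitted maximal effect; % of control where 0% means no effect; nearly all actives have a fitted effect of over 65% in size; a mitochondrial uncoupler was the plate control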
#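 A stable cell line was treated with compounds at 5 concentrations for 24 hours, with CCCP as control. PINK1 levels and mitochondrial localization were measured by immunofluorescence with mitochondrial, cell and nuclear markers after fixation, read by laser-scanning cytometry.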
# CtBP-E1A inh = CtBP/E1A binding inhibition; activity change, % (concentration not given with the values); AID 651724; AlphaScreen GST-E1A/His-CtBP binding, 1536-well; active compounds read low; control for the full effect not named in the record; 340,000 compounds, 0.49% hits; in the data active means activity change below about -65%; inconclusive means about -30% to -65%; inactive means above about -30%; further: on the % scale 0 is the no-effect control and ±100 the full control effect
#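 Protein mix (5X: 125 nM each GST-E1A, His-CtBP) was incubated with pinned compound 2 h at 37 deg C in dark, in 50 mM Tris pH 8.0 buffer with 300 mM NaCl. Glutathione donor and nickel acceptor beads followed; AlphaScreen signal read after 1 h.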
# D2 potentiator = human D2 receptor positive allosteric modulation | P14416 | DiscoveRx D2 beta-arrestin cells, luminescence, 90 min; 100% = 57 uM dopamine signal | potentiation, % (no concentration beside the values) | 360,000 compounds, 0.23% hits | AID 624464; active = potentiation of 50% or more; inconclusive = 30% to 50%; inactive = 30% or less;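 further: compound concentration not given in the record; tested on top of an EC20 dose of dopamine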
#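 D2 cells co-treated with compound plus 50 nM dopamine (EC20) for 90 min at 37 deg C to detect potentiation. Beta-arrestin recruitment was read as enzyme-fragment luminescence after 1 h at ambient temperature. Full response was set by 57 uM dopamine.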
# Starred values were filed as active, the others as inactive; ? = inconclusive; · = not tested or not shown; & = joins results of further samples; [ ] = another dose, or the depositor's remark.
# Below each SMILES – Six1-Eya2 inh, D2 agonist, Sfp PPTase inh, TRPV1 PAM, PINK1 modulator, CtBP-E1A inh, D2 potentiator
1	Oc1ccc(CCNc2c3ccccc3nc3ccccc23)cc1O
→ ?, 130*, ?, -4, -2.0%, ?, 8
2	O=C(Nc1ccccc1)OCCNC(=O)c1cccc(Br)c1
→ 7, -1.0, -3%, -10, 2.0%, 2, -6
3	COc1ccc(NCN2C(=O)C3C4C=CC(C4)C3C2=O)cc1 (stereo unspecified)
→ -4, 0.0, 8%, 4, -2.9%, 2, -3
4	O=C(O)C1CCCN1C(=O)c1cccs1 (stereo unspecified)
→ 0, -2.5, 12%, -1, -2.5%, 3, -1
5	[O-]/[N+](=C/c1ccco1)c1ccccc1
→ 7, -1.9, 26%, 3, 0.3%, ·, -6
6	CCN(CC(=O)NCc1ccncc1)S(=O)(=O)c1ccccc1
→ 10, -4.3, 14%, 2, 0.7%, 3, -2
7	Cc1ccc(-n2c(CCc3nc4ccccc4[nH]3)n[nH]c2=S)cc1
→ 10, -0.8, 21%, 5, -0.3%, 11, -22
8	O=C(CN1CCC(n2nnc3cc(C(F)(F)F)ccc32)CC1)NNC(=O)c1ccco1
→ 11, -2.0, 5%, -4, 2.4%, ·, -19
9	COc1ccc2cc3cc(C(=O)NCC4COc5ccccc5O4)oc3nc2c1 (stereo unspecified)
→ -1, -2.2, 2%, 17, 7.1%, -11, 6
10	CC(/C=C1\SC(=S)N(NS(=O)(=O)c2ccccc2)C1=O)=C\c1ccccc1
→ -5, -1.4, 2%, 24, -0.7%, -9, -10
11	C[C@@H]1CN([C@@H](C)CO)C(=O)c2cc(NC(=O)C3CC3)ccc2O[C@@H]1CN(C)C(=O)NC1CCCCC1
→ 0, 0.0, ·, ·, 2.6%, 7, -8
12	O=C(N/N=C\c1ccc(-c2ccc([N+](=O)[O-])cc2)o1)C1COc2ccccc2O1 (stereo unspecified)
→ -11, -2.3, 4%, -4, 0.6%, 2, 16
13	COc1ccc2[nH]c(C(=O)O)c(NS(=O)(=O)c3ccc(OC)c(OC)c3)c2c1
→ ?, 1.0, -13%, 21, 3.8%, -28, -5
14	O=C(CCCCCNc1nc(=S)[nH]c2ccccc12)NCCc1ccc(Cl)cc1
→ ?, -3.4, -14%, 0, 4.1%, -13, -17
15	Cc1cccc(N(C)C(=O)CCS(=O)(=O)c2cc3c(cc2Cl)NC(=O)CO3)c1
→ 0, -3.1, -14%, -26, 1.4%, 5, -3
16	COc1ccc(NCc2nnc(SCC(=O)Nc3nc(-c4ccccc4)cs3)n2-c2ccccc2)cc1
→ -1, -1.2, 11%, 13, ?, -6, 20
17	COc1ccc(NC(=O)CN(C)C(=O)c2ccc(NS(=O)(=O)c3ccc(C)c([N+](=O)[O-])c3)cc2)cc1
→ -8, 1.8, ·, 4, 3.6%, -2, 8
18	CCCC(=O)Nc1ccc(C(=O)Nc2nnc(COC)s2)cc1
→ 1, 1.3, 6%, -6, 2.8%, 4, 3
19	O=C(N/N=C/c1ccccc1Cl)c1cccc(F)c1
→ -6, -0.1, 10%, -13, 6.3%[38.3 µM], -9, -10
20	Cc1cc(C)cc(NC(=O)CCNS(=O)(=O)c2cc(Br)cnc2N)c1
→ 4, -0.8, 19%, 5, 6.0%, 3, -16
21	NNC(=O)C1=NOC(CNc2ncc(C(F)(F)F)cc2Cl)C1 (stereo unspecified)
→ 1, -1.8, 24%, 0, -0.6%, -2, -13
22	O=C(O)CCCCCN=Cc1c(O)c2ccccc2oc1=O
→ 3, -2.0, 15%, 0, 2.4%, 7, 2
23	O=C(O)C1CCCCN1c1ccccc1[N+](=O)[O-] (stereo unspecified)
→ 8, -4.6, ·, ·, -0.1%, 2, -8
24	COc1ccc(C(=O)OCC(=O)N2CCOCC2)cc1S(=O)(=O)N1CCOCC1
→ 5, 2.2, ·, -4, -0.4%, ·, 5
25	COc1ccc(-c2cc(C#N)nc(N3CCNCC3)n2)cc1
→ -1, -2.1, ?, -3, -4.0%[38.3 µM], -10, -24
26	CCOc1ccc(NC(=O)COC(=O)CSCC(=O)Nc2ccc(C)cc2C)cc1
→ 0, -1.2, ·, -11, 1.5%, 6, 1
27	C=CC(COCc1ccccc1)N(Cc1ccccc1)S(=O)(=O)c1ccccc1Br (stereo unspecified)
→ 11, -2.3, 5%&10%, 10, 3.9%, ·, -2
28	Cc1ccc(S(=O)(=O)N2CCN(S(C)(=O)=O)CC2)cc1
→ 1, 1.1, ·, ·, 3.6%[38.3 µM], -2, 4
29	COc1ccc(CCNC(=O)Cn2c(=O)n(CC3CCCO3)c(=O)c3cc(OC)c(OC)cc32)cc1OC (stereo unspecified)
→ 5, -1.4, 19%, 3, 0.3%, ·, -7
30	COc1ccccc1Cn1cnc2cccnc21
→ 2, -0.4, 0%, -3, -0.2%, -2, 0
31	O=C(O)C(Oc1ccc2ccccc2c1)c1ccccc1 (stereo unspecified)
→ -2, -0.6, ·, ·, -0.7%, 2, -5
32	CC1(C)CC(=O)C2=C(C1)Nc1ccccc1NC2c1ccc(F)c(F)c1 (stereo unspecified)
→ -2, -2.1, 9%, 6, 2.5%, 3, -2
33	CCCOc1ccc(N2CC(C(=O)Nc3ncccc3C)CC2=O)cc1 (stereo unspecified)
→ 33, -1.0, 16%, -4, -1.4%, 0, -2
34	COC(=O)c1cccc(C(=O)Oc2cccc(Br)c2)n1
→ 0, -3.7, 9%, 11, -2.7%, 0, -5
35	CC1(C)CC(=O)c2cnc(N3CCc4ccccc43)nc2C1
→ 42, -1.2, ?, -12, 3.9%, 34, -4
36	COc1ccccc1CNC(=O)CC(C)C
→ 1, -5.7, -3%, -16, 2.0%, 4, -8
37	CSc1ncccc1C(=O)OCC(=O)N1CCOCC1
→ 0, -1.7, 18%, -2, 6.7%[38.3 µM], -6, -6
38	CC(C)N(C(=O)CSc1nnc(NC2CC2)s1)c1ccccc1
→ 3, 5.7, ·, -17, -0.4%, 8, -1
39	COc1ccc(CC(=O)Nc2ccc(C(=O)O)cc2NC(=O)Cc2ccc(OC)cc2)cc1
→ 3, -4.3, 25%, 5, -0.5%, 8, -1
40	COc1ccccc1CNC(=O)CSc1nc(=O)n(Cc2ccncc2)c2c1CCC2
→ 0, -2.2, ·, 9, -0.7%, -1, -13
41	CCSc1nc(N2CCCCC2)c2c(c1C#N)CCCC2
→ -1, 0.8, 1%, 2, 2.3%, 9, -1
42	CC(C)(C)c1cc(OC(=O)c2ccncc2)ccc1O
→ 5, 8.9, 3%, 0, 2.2%, 7, 69*
43	O=C(Nc1ccccc1C(F)(F)F)c1ccccn1
→ 10, 0.5, -26%, -2, 5.6%, 2, -26
44	Cc1ccc(N2CC(C(=O)NCCS(=O)(=O)N3CCN(c4ccccc4)CC3)CC2=O)cc1 (stereo unspecified)
→ -1, 0.3, 6%, 6, -1.6%&-2.0%, 1, -2
45	O=C(N/N=C/c1cccc(O)c1)c1ccc2c(c1)OCCO2
→ 2, -0.1, 3%, 7, 0.4%, ·, 1
46	Cc1ccc(C)n1-c1nnc(N2CCC(C(=O)NCCCN3CC(C)CC(C)C3)CC2)s1 (stereo unspecified)
→ -3, -2.1, 1%, 9, 1.1%, -13, -15
47	CC(C)(C)c1ccc(C(=O)NC(=O)COC(=O)CCS(=O)(=O)c2ccccc2)cc1
→ 8, -0.4, ·, -2, -0.1%, 8, -4
48	Cc1ccc(C(=O)NCCc2nnc3ccc(SCC(=O)Nc4ccc(C)cc4C)nn23)cc1
→ 2, 2.3, 12%, -11, 4.3%, 6, -12
49	O=C(CCCSc1nc2ccccc2s1)NCc1ccc2c(c1)OCO2
→ -1, 0.3, 0%, -3, -0.7%, 8, -19
50	O=C(CCCc1ccccn1)c1cccc2ccccc12
→ 13, -0.5, ·, ·, 0.0%, -4, -14

# (next part)
# Below each SMILES – Six1-Eya2 inh, D2 agonist, Sfp PPTase inh, TRPV1 PAM, PINK1 modulator, CtBP-E1A inh, D2 potentiator
51	Cc1ccc(NC(=O)C2CCCN(S(=O)(=O)c3c(C)noc3C)C2)cc1F (stereo unspecified)
→ 19, -4.8, 14%, -8, 2.3%, 45, -23
52	COc1cc(/C=N/NC(=O)c2ccc(CSc3nncn3C)cc2)ccc1OCC(=O)N1CC(C)OC(C)C1 (stereo unspecified)
→ 0, -5.3, 33%[activator], 4, 0.6%, -7, -2
53	CC(C(=O)NC1C=CS(=O)(=O)C1)N1C(=O)/C(=C/c2ccc(Cl)cc2)SC1=S (stereo unspecified)
→ -7, 0.3, ?, -2, 1.5%, ·, -5
54	CCN1C(=O)c2cccc3c(NC(=O)c4ccc5c(c4)OCCO5)ccc1c23
→ -1, -1.3, -5%, -34, ?, -2, -12
55	O=C(C[C@H]1C(=O)N(Cc2cccnc2)C[C@@H]1Cc1ccccc1)Nc1ccc(Br)cc1
→ -7, 0.8, ·, ·, 15%, -17, ·
56	Cc1csc(N2CCCC2c2nc3cc(Cl)c(N4CCCCC4)cc3n2CCOCCO)n1 (stereo unspecified)
→ -7, -0.8, ·, ·, 6.4%, -1, -5
57	S=C1NCc2cncnc2N1
→ 0, -4.8, ·, ·, 0.0%, 2, -7
58	COc1ccc(/C=N/NC(=O)c2ccc3nc[nH]c3c2)c(OC)c1
→ 3, -5.3, 11%, 1, 0.4%, ·, -6
59	O=C(NCC1COc2ccccc2O1)c1ccc(Cl)c(S(=O)(=O)N2CCCC2)c1 (stereo unspecified)
→ -3, 2.3, ·, -5, 2.3%, -1, -1
60	COc1ccc(/C=N/NC(=O)C(=O)N2CCCCCC2)cc1
→ -9, -3.7, 20%, 0, 1.0%, 1, -7
61	Cc1ccc(CC(=O)OCCNC(=O)c2cccnc2)cc1
→ 7, -0.8, 5%, -5, -2.6%[38.3 µM], 1, -2
62	CCC(C)(C)C1CCc2c(sc(NC(=O)c3ccoc3C)c2C(N)=O)C1 (stereo unspecified)
→ -4, -2.9, -1%, 2, -1.5%, 0, -3
63	CC1(C)CC2CC(C)(CN2S(=O)(=O)c2cccc(C(N)=O)c2)C1 (stereo unspecified)
→ 0, -4.4, ·, -7, 1.7%, ·, 0
64	Cc1csc(=O)n1CC(=O)OCc1cccc2ccccc12
→ 2, -2.2, 9%, -6, 1.4%, -3, 2
65	CC(C)c1cc(CNC(=O)CC2C(=O)NCCN2CC2CCCCC2)on1 (stereo unspecified)
→ 7, -2.2, 7%, 10, -0.7%, 2, -9
